Vaccinia Venus: inhibitors of vaccinia virus (Venus reporter) | Potency, µM (doses to about 36.5 µM), for inactives: top-dose activity change, negative = inhibition, actives largely listed as inhibitors | Vaccinia virus Venus reporter expression, fluorescence | 330,000 tested, 0.46% active; active means well fitted inhibition curve with a large enough effect; inconclusive means small, poorly fitted or top-dose-only effect; inactive means no such curve, though single readings can be large or run the other way; tested in A549 cells; further: nearly all actives have a fitted effect of over 30% in size; inactives centre near -10
VACV mCherry inh: inhibitors of vaccinia virus infection (mCherry reporter signal); Potency, µM (top dose mostly 36.5 µM), for inactives: at the highest dose activity change, negative = inhibition, most hits filed as inhibitors; 310,000 tested, 0.63% active; Vaccinia virus mCherry reporter infection, fluorescence; about a quarter of the inactives have no number; AID 720579; active = well fitted inhibition curve with a large enough effect; inconclusive = small, poorly fitted or top-dose-only effect; inactive = no such curve, though single readings can be large or run the other way; tested in A549 cells; further: nearly all actives have a fitted effect of over 35% in size; inactives centre near -10
Starred values were filed as active, the others as inactive; i = inactive; u = inconclusive; x = not tested or not shown; & = joins results of further samples; [ ] = remark or other dose. On the % scale 0 is the no-effect control and ±100 the full control effect; potency means the concentration at half of the fitted maximal effect. Compounds were not picked by outcome; 0.87% or so of the library scored in one or more.

Order of results – VACV mCherry inh	Vaccinia Venus
Cc1nc2sc(C(c3ccc(Br)cc3)N3CC(C)OC(C)C3)c(O)n2n1 (stereo unspecified)
 : -27%	-14%
CCCCc1nc2cc(C(=O)N3CCCCC3CC(=O)OCC)ccc2o1 (stereo unspecified)
 : i	-18%
CC(C(=O)NCc1ccco1)n1ccc2cc(S(=O)(=O)N3CCCC3)ccc21 (stereo unspecified)
 : -5%	-7%
O=C1C2C3C=CC([C@@H]2C(=O)N1C1CC1)[C@H]1C(=O)N(C2CC2)C(=O)C31 (stereo partly specified)
 : -11%	4%
CCN(CC)C(=O)Cn1c(=O)nc(-c2ccccc2F)c2cc(Cl)ccc21
 : -7%	-8%
CCOc1ccccc1C1CC(=O)NC(SCC(=O)Nc2nccs2)=C1C#N (stereo unspecified)
 : i	-12%
O=C(Nc1cccc(Cl)c1Cl)C1CCN(C(=O)c2cccs2)CC1
 : i	-1%
Cc1ccc(CSc2ncc(Cl)c(C(=O)NCCc3ccc(S(N)(=O)=O)cc3)n2)cc1
 : -21%	-22%
Cc1csc2nc(-c3cccc(NS(C)(=O)=O)c3)cn12
 : -7%	-10%
COc1ccc(C(CNC(=O)Cc2ccccc2F)N2CCCCC2)cc1 (stereo unspecified)
 : -19%	-3%

Order of results – VACV mCherry inh	Vaccinia Venus
COc1ccc(C2C(C#N)=C(SC)NC3=C2C(=O)CC(C)(C)C3)cc1 (stereo unspecified)
 : -7%	-8%
CCCCS(=O)CC(COc1ccc(Cl)cc1)OC(=O)c1ccccc1 (stereo unspecified)
 : -16%	-6%
NC(=O)c1nsc(C(=O)N(Cc2ccco2)C(C(=O)NC2CCCC2)c2ccc(O)cc2)c1N (stereo unspecified)
 : -10%	-4%
COc1ccc(C(C)NCCC(c2ccc(OC(C)C)cc2)c2ccccc2OC)cc1 (stereo unspecified)
 : u	11µM*
O=S(=O)(c1ccc(F)cc1)N1CCN(CCOc2ccccc2)CC1
 : -9%	7%
CN1CCN(c2ccc(NC(=O)c3ccc(C#N)cc3F)cc2Cl)CC1
 : i	-21%
COc1ccccc1CNC(=O)CN1C(=O)CSc2c1c(C)nn2-c1ccccc1
 : 25%	1%
Nc1nc(=O)n(C2CCCO2)cc1Br (stereo unspecified)
 : -6%	-5%
N#Cc1ccc(C2=CC(=O)C[C@H](c3ccc(F)cc3)C2)cc1
 : -21%	u
CCc1cccc(C)c1NC(=O)CCn1nc(C)c2c(C)n(-c3ccccc3)nc2c1=O
 : -28%	-24%

Taken from above.
Under Vaccinia Venus, O=S(=O)(c1ccc(F)cc1)N1CCN(CCOc2ccccc2)CC1 is listed with 7%
Under Vaccinia Venus, COc1ccccc1CNC(=O)CN1C(=O)CSc2c1c(C)nn2-c1ccccc1 is listed with 1%
Under VACV mCherry inh, N#Cc1ccc(C2=CC(=O)C[C@H](c3ccc(F)cc3)C2)cc1 is listed with -21%
Under VACV mCherry inh, CCN(CC)C(=O)Cn1c(=O)nc(-c2ccccc2F)c2cc(Cl)ccc21 is listed with -7%

(next part)
Order of results – VACV mCherry inh	Vaccinia Venus
c1ccc(COc2cccc(-c3cc4nc(NCc5ccc6c(c5)OCO6)ccn4n3)c2)cc1
 : -29%	-14%
O=S(=O)(N/N=C/c1ccccc1OCc1ccc(Cl)cc1)c1ccccc1
 : -19%	-27%
O=[N+]([O-])c1cc(S(=O)(=O)Nc2ccc(Cl)cc2)ccc1N/N=C/c1ccncc1
 : u	u
CCc1ccccc1NC(=O)CCC(=O)OCC(=O)c1ccc(-c2ccccc2)cc1
 : -18%	-19%
O=C1CC(Sc2ncccn2)C(=O)N1c1ccccc1C(F)(F)F (stereo unspecified)
 : -14%	0%
O=C(O)CC(Cc1ccccc1)C(=O)Nc1ccc([N+](=O)[O-])cc1 (stereo unspecified)
 : -6%	2%
NC(Cc1ccc(O)c([N+](=O)[O-])c1)C(=O)O (stereo unspecified)
 : i	-6%
CCN(C(=O)c1cnc(N2CCN(c3ncccn3)CC2)c2ccccc12)c1cccc(Cl)c1
 : u	u
CC(C)NC(=O)c1ccc(COCC(F)(F)F)cc1
 : -11%	-10%
Cc1nn(C)c(C)c1CCNC(=O)Nc1ccccc1C(F)(F)F
 : -14%	-19%

3 entries drawn at random from those above, as already listed:
Order of results – VACV mCherry inh	Vaccinia Venus
O=C(O)CC(Cc1ccccc1)C(=O)Nc1ccc([N+](=O)[O-])cc1 (stereo unspecified)
 : -6%	2%
O=S(=O)(c1ccc(F)cc1)N1CCN(CCOc2ccccc2)CC1
 : -9%	7%
CCc1cccc(C)c1NC(=O)CCn1nc(C)c2c(C)n(-c3ccccc3)nc2c1=O
 : -28%	-24%

Next part.
Order of results – VACV mCherry inh	Vaccinia Venus
O=C(CSC1=NC(=O)C(Cc2ccccc2)C(=O)N1)Nc1ncc(Br)cc1Br (stereo unspecified)
 : -10%	-3%
Cc1c(NC(=O)/C(=C/c2cccs2)c2cccs2)c(=O)n(-c2ccccc2)n1C
 : i	-4%
COc1ccc(NC(=O)CN(C)S(=O)(=O)c2ccc3c(c2)NC(=O)CS3)cc1
 : -9%	-18%
Cc1noc(C)c1S(=O)(=O)NCCc1ccc(S(N)(=O)=O)cc1
 : -11%	-7%
CCSc1nnc2c(n1)OC1(CCCC1)Nc1ccccc1-2
 : -20%	-17%
CCn1cc([N+](=O)[O-])c(C(=O)N2N=C(c3ccc4ccccc4c3)CC2c2ccccc2O)n1 (stereo unspecified)
 : u	u
CN(C)C(CNC(=O)c1cc(S(=O)(=O)N(C)c2ccc(F)cc2)ccc1Cl)c1ccco1 (stereo unspecified)
 : -5%	-9%
CC(C)CCNC(=O)c1onc(CSc2ccccc2)c1C(=O)NCCC(C)C
 : -18%	-5%
CCOc1ccccc1CNC(=O)CCc1cn(C)c2ccccc12
 : -6%	-4%&-14%
COCCOC(=O)C1=C(C)NC(=O)NC1c1cn(-c2ccccc2)nc1-c1ccccc1 (stereo unspecified)
 : 4%	3%

Order of results – VACV mCherry inh	Vaccinia Venus
CCc1cccc(CC)c1NC(=O)COC(=O)/C(C#N)=C/c1ccc(OC)cc1
 : i	-11%
COc1cccc(CNC(=O)C(=O)NCC(c2ccco2)N2CCOCC2)c1 (stereo unspecified)
 : -11%	-8%
Nc1ncnc(NCc2ccc(F)cc2)c1[N+](=O)[O-]
 : -20%	-14%
COc1cc(CN(C(=O)c2ccccc2)c2ccccn2)cc(OC)c1OC
 : -8%	-2%
CC(=O)Nc1nnc(S(=O)(=O)N2CCN(c3ccc([N+](=O)[O-])cc3Cl)CC2)s1
 : u	-12%
CC1=C(C(=O)N2CCN(c3cccc(C(F)(F)F)c3)CC2)C2(CCCCC2)OC1=O
 : -11%	-5%
CC(=O)NCC(=O)NC1(C(=O)NC2CCCC2)CCCCC1
 : -15%	-6%
Cc1ccc(-c2cc3ncc(C(=O)c4cc([N+](=O)[O-])ccc4O)cn3n2)cc1
 : u	-28%
O=C(C1CC1)N1CCCN(C(=O)C2CC2)CC1
 : x	-21%
CCOC(=O)CNS(=O)(=O)c1cc(-c2nnc(Nc3cccc(O)c3)c3ccccc23)ccc1C
 : -10%	-13%

Order of results – VACV mCherry inh	Vaccinia Venus
COc1ccc(Oc2coc3cc(OC(=O)/C=C/c4ccccc4)ccc3c2=O)cc1
 : -13%	-7%
Cc1[nH]c(=O)[nH]c(=O)c1Cc1cccc2ccccc12
 : -18%	-7%
CC1(C)SCC(C(=O)O)N1C=O (stereo unspecified)
 : x	-9%
O=C(CCl)Nc1ccc2c(c1)OCO2
 : -20%	-19%
Cn1cnc([N+](=O)[O-])c1Sc1ccncn1
 : -10%	-16%
Cc1cc(C(=O)NNC(=O)c2cccc(S(=O)(=O)N3CCOCC3)c2)c2ccccc2n1
 : -4%	-16%
O=C1CCC(N2C(=O)c3ccccc3C2=O)C(=O)N1 (stereo unspecified)
 : -17%	-12%[60.7 µM]
COc1cccc(CN2CCN(Cc3cccc(Br)c3)CC2)c1OC
 : -18%	-10%
CCC(=O)N1CCc2cc(CNC(=O)Nc3cc(OC)c(OC)c(OC)c3)ccc21
 : -6%	9%
O=C(Nc1ccc(F)cc1)C(c1ccnc2ccccc12)N1CCN(c2cccc(C(F)(F)F)n2)CC1 (stereo unspecified)
 : -22%	u

Order of results – VACV mCherry inh	Vaccinia Venus
CN1CCN2c3ncccc3Cc3ccccc3C2C1 (stereo unspecified)
 : i	-10%
CCOc1ccc(CCNC(=O)CCc2cn(Cc3ccc(C)cc3)c3ccccc23)cc1
 : -16%	-17%
CC(=O)c1cccc(NC(=O)C2(C)Cc3c(-c4cccc(C(N)=O)c4)ccnc3O2)c1 (stereo unspecified)
 : 4%	-13%
COc1ccc(Cc2nc3ccc(C(=O)N(C)Cc4nccn4C)cc3o2)cc1
 : i	-6%
C=C(C)COc1ccc(-c2ncncc2Oc2ccc(OC)cc2)c(O)c1
 : x	0%
O=S(=O)(/N=C(\c1ccccc1F)N1CCCCC1)c1ccccc1
 : -14%	-6%
O=C(NC1CCCCC1)N1CCN(Cc2ccco2)CC1
 : 0%	1%
COc1ccc(/C=C(/NC(=O)c2cccs2)C(=O)NCc2ccco2)cc1OC
 : -9%	-19%
O=C(O)c1cc(N/N=C/c2ccc3c(c2)OCCO3)ccc1Cl
 : -11%	1%
CCc1ccc(OCc2nnc(SCCN3CCOCC3)n2C)cc1
 : -7%	-2%

Record cards, as listed above:
C=C(C)COc1ccc(-c2ncncc2Oc2ccc(OC)cc2)c(O)c1 reads VACV mCherry inh: x; Vaccinia Venus: 0%
COc1ccc(/C=C(/NC(=O)c2cccs2)C(=O)NCc2ccco2)cc1OC reads VACV mCherry inh: -9%; Vaccinia Venus: -19%
O=C(NC1CCCCC1)N1CCN(Cc2ccco2)CC1 reads VACV mCherry inh: 0%; Vaccinia Venus: 1%

More results follow:
Order of results – VACV mCherry inh	Vaccinia Venus
COc1ccc(OC)c(-n2c(O)cnc2Nc2nc(C)cc(C)n2)c1
 : x	-5%
CCOc1ccc(NC(=O)OCCN2CCN(CCc3ccccc3)C(C)C2)cc1 (stereo unspecified)
 : u	-21%
Cc1nc2cc(Oc3nc(NCCN(C)C)nc4ccsc34)ccc2s1
 : -10%	-9%
Cc1ccc(Cn2cc(CN3CC(N4CCCC4)CS3(=O)=O)nn2)cc1 (stereo unspecified)
 : i	-2%
Cc1ccc(C(C)(C)NC(=O)C2CCC(=O)N(C3CCCCCC3)C2)cc1 (stereo unspecified)
 : -1%	-18%
CCOc1ccc(Nc2ccc(N)c(S(=O)(=O)O)c2)cc1
 : u	-1%
CSc1cccc(NC(N)=O)c1
 : -4%	4%
Cc1cc(=O)oc2cc(OCC(O)CN3CCN(c4ccc(F)cc4)CC3)ccc12 (stereo unspecified)
 : -13%	-8%
Cc1cc(Cl)ccc1Oc1ccc(C(N)=O)cc1[N+](=O)[O-]
 : -29%	-20%
Cc1ccc(NC(=O)CN2CCN(c3ccccn3)CC2)c(Cl)c1
 : i	-24%

Order of results – VACV mCherry inh	Vaccinia Venus
O=S(=O)(c1cccc(Cl)c1)N1CN(CC2CCCO2)c2nc3ccccc3nc21 (stereo unspecified)
 : 7%	0%
C=CCC1c2cccc(C(=O)O)c2C(=O)N1c1ccc(Cl)cc1 (stereo unspecified)
 : x	-20%
Cc1cccc(Cn2cnc3c(oc4ccccc43)c2=O)c1
 : -7%	-11%
O=C(COC(=O)c1c2c(nc3ccccc13)/C(=C\c1cccs1)CCC2)Nc1ccccc1
 : u	u
COc1ccc(S(=O)(=O)N2CCC(C(=O)Oc3c(OC)cccc3OC)CC2)cc1OC
 : i	-12%
O=C(c1ccc(C(F)(F)F)cc1)N1CCN(S(=O)(=O)c2ccc3c(c2)OCCCO3)CC1
 : -5%	-28%
COc1ccc(CCN(C)C(=O)C2CCN(C(=O)Nc3ccccc3)CC2)cc1OC
 : i	-8%
CC(C)OCCCNC(=O)C1CCN(S(=O)(=O)N2CCCCC2)CC1
 : -11%	-9%
CC(=O)c1ccc(NC(=O)C(C)Sc2nnnn2C)cc1 (stereo unspecified)
 : -14%	-7%
O=[N+]([O-])c1ccc(OCC2CC(c3ccccc3)=NO2)cc1 (stereo unspecified)
 : -12%	-3%

Order of results – VACV mCherry inh	Vaccinia Venus
CC(C)c1ccc(OCC(=O)Nc2c3c(nn2C(C)(C)C)CS(=O)(=O)C3)cc1
 : -13%	-14%
COc1ccc(-n2c(Cc3cccn3C)nnc2SCC(=O)Nc2ccccc2)cc1
 : -2%	-1%
COc1ccc(CNC(=O)c2nn(C)c3c2CSc2ccccc2-3)cc1
 : 4%	0%
CC(C)c1nc(SCC(=O)Nc2ccc([N+](=O)[O-])cc2Br)n[nH]1
 : -10%	-11%
O=C(COC(=O)CC1CC2CCC1C2)Nc1ccc(F)cc1 (stereo unspecified)
 : -14%	-6%
CCc1ccc(CNC(=O)c2nn(-c3ccc(C)c(C)c3)nc2CO)cc1
 : -20%	-24%
NC(=O)N/N=C/c1sc(=O)n(-c2ccccc2)c1Cl
 : -15%	-4%
CCOc1cc(N2CCOCC2)c(OCC)cc1NC(=O)c1ccc2ccccc2n1
 : -26%	-6%
CCOC(=O)c1oc2ccc(S(=O)(=O)n3nc(-c4ccccc4)cc3N)cc2c1C
 : -31%	u
N#CC1=C(N2CCCCC2)c2cc3c(n2C1=O)CCCC3
 : x	-17%
Cn1nc(C(=O)N2CCN(c3ccccc3F)CC2)c2c1-c1ccccc1S(=O)(=O)C2
 : -19%	-15%
Cc1cc(C)cc(NC(=O)C(=O)NCCc2sc(-c3cccc(F)c3)nc2C)c1
 : -12%	-9%

Screens (PubChem BioAssay)
